Screening data deposited in PubChem BioAssay by several laboratories.
Arbovirus inh = antivirals against arbovirus infection, primary screen, cell-based, full library, 10K replicate subset; inhibition, % at 10 µM; hit rate 0.37% among 200,000; arbovirus infection cell-based antiviral screen;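 active means inhibition from about 30%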;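 further: bluetongue infection of BSR cells; cell survival read as ATP light after 72 h; 0% = infected wells without compound and 100% = uninfected wells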
Mtb bLac sens = beta-lactam sensitization of Mtb H37Rv, H37Rv; M. tuberculosis H37Rv growth with meropenem, percent inhibition; hits of this screen are not shown here; inhibition, % at 25 µM; hit rate 0.27% among 330,000; AID 434955, 2010;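 active means about 74% or more and at least 40 points above the plate without the antibiotic, then above 30% in a dose series; inconclusive means first-round hits that could not be retested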;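 further: growth measured after seven days incubation then overnight dye step; 0% = bacteria only wells and 100% = bacteria with antibiotic; twin plates without the antibiotic show which effects depend on it; some results filed as inactive read as strong as hits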
RecA splice inh = Mtb RecA intein splicing inhibitors, primary screen, biochemical, fluorescence, HTS; Protein RecA (Mycobacterium tuberculosis (strain ATCC 25618 / H37Rv)), P9WHJ3; cell-free RecA intein splicing; inhibition, %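 (about 9 µM by stock and volumes)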; hit rate 0.75% among 290,000; AID 2221, 2009; in the data active means inhibition above about 30%; inconclusive means no clear call, values can overlap the other calls;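 further: 0% = vehicle wells and 100% = reference inhibitor control wells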
Target sequence (P9WHJ3 whole entry, looked up, canonical isoform): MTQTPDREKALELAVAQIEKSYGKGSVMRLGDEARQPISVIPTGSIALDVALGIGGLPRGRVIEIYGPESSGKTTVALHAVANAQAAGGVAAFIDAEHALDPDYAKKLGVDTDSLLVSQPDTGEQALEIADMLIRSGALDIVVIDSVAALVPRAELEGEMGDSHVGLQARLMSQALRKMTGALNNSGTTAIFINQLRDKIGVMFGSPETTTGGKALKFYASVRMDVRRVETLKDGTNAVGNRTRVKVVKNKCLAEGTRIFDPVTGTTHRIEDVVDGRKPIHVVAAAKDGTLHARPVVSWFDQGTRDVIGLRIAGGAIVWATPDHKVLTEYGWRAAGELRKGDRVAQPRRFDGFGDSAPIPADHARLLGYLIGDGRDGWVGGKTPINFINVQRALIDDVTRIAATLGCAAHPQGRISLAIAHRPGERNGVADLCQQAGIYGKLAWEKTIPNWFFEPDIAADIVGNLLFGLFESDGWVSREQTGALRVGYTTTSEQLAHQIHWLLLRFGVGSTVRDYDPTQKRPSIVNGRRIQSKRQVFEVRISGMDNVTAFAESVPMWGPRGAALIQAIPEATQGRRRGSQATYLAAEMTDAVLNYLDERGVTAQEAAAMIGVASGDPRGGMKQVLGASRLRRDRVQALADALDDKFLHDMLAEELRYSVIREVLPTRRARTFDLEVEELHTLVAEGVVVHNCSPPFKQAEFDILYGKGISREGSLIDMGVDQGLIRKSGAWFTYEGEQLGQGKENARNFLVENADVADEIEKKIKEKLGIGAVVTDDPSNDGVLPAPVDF
YopH PTP inh = YopH tyrosine phosphatase inhibitors, primary screen, biochemical, fluorescence Ex485/Em525; YopH tyrosine phosphatase [Yersinia enterocolitica]; inhibition, %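 (about 10 µM by stock and volumes)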; hit rate 0.16% among 140,000; AID 898, 2007;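 active means inhibition of 50% or more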;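 further: controls were vehicle for no effect and minimum signal wells for full effect; inactives centre near -20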
Mtb H37Rv = M. tuberculosis H37Rv growth inhibitors, H37Rv strain (AID 1626) | M. tuberculosis H37Rv growth inhibition; higher % means a stronger effect | hit rate 0.95% among 220,000 | inhibition, % at 10 µM, or IC50 in µM where a hit was titrated;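 active means confirmed in a dose series; inconclusive means inhibition above 80% but not taken into the dose series; inactive means below 80% or under 30% at every dose of the series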;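 further: bacteria incubated seven days before Alamar blue readout; 0% = bacteria only wells and 100% = bacteria with antibiotic wells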
Arbovirus inh repeat = also measured in Arbovirus inh; calls as there; inhibition, %; measured here: 10K subset replicate screen; many hits read low in the repeat;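 first of two repeat runs on a subset; 0% = infected and 100% = uninfected wells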
* = called active by the depositor; ? = inconclusive; . = not tested or not shown; & = joins results of further samples.

SMILES	Arbovirus inh	Mtb bLac sens	RecA splice inh	YopH PTP inh	Mtb H37Rv	others
COc1ccccc1/C=N/NC(=O)c1cccc(NC(=O)c2ccccc2Cl)c1	-4	0	-1.1	.	-5%
Cc1ccc(Cn2c(C(C)Nc3nc(-c4ccc(Cl)cc4)cs3)nc3cc(C(=O)NCCCO)ccc32)cc1 (configuration not stated)	.	.	23	.	3%
CN(C)c1ccnc(Oc2ccccc2)c1C#N	4	.	.	-43	0%
Cc1ccc(S(=O)(=O)N2CCN(C(=O)COC(=O)COc3cccc4c3OC(C)(C)C4)CC2)cc1	.	-8	0.2	.	.
CC1(c2cccc(Br)c2)NC(=O)N(CC(=O)Nc2ccc(F)cc2)C1=O (configuration not stated)	.	2	2.6	.	.
O=C(CC1C(=O)NCCN1C(=S)Nc1ccccc1)Nc1ccc(F)cc1 (configuration not stated)	5	0	-1.0	-3	11%
COc1ccc(Br)cc1CN1CCN(C(=O)c2cccc(F)c2)CC1	.	3	2.7	.	.
CCCn1c(SCC(=O)N2CCCC2)nc2c1c(=O)n(C)c(=O)n2C	1	-6	-0.4	-49	-4%
CCCCn1c(C)c(C(=O)OCC)c2c(CN3CCCC3)c(O)ccc21	.	82	-3.1	.	.
CCc1cc(=O)oc2c(C)c(OC(C)C(=O)NC3CC(C)(C)NC(C)(C)C3)ccc12 (configuration not stated)	.	-1	0.2	.	.
Cc1csc(NC(=O)C(F)(F)F)n1	1	-3	0.1	-22	0%
CS(=O)(=O)N(CC(=O)N1CCCC1)c1cc(Cl)c(Cl)cc1Cl	-1	-9	.	9	-3%
Cc1ccc(C(=O)Nc2nnc(C3=COCCO3)o2)cc1C	.	?	1.3	.	.
COc1cc(C)nc(N2CCCC(C(=O)NC3CCC(C)CC3)C2)n1 (configuration not stated)	.	-6	-3.5	.	3%
COc1ccc(/C=N/NC(=O)CCCOc2ccc(Cl)cc2Cl)cc1	1	-5	6.0	-44	21%
CC(=O)OCCc1c(C)nc2nc[nH]n2c1=O	0	-5	-1.2	-21	0%
CC(=O)Nc1ccc(OC(=O)N2CCCC2)cc1	.	-3	-1.1	.	.
CCOc1ccccc1C1C(C#N)=C(N)N(N(C)C)C2=C1C(=O)CCC2 (configuration not stated)	.	8	-5.7	.	.
Cc1ccc(C)c(N2C(=O)CS/C2=N\NC(=O)c2ccccc2Cl)c1	-3	8	-0.9	-23	-6%
Cc1ccccc1NC(=O)COC(=O)/C=C/c1cccc(C(F)(F)F)c1	-1	3	-0.6	-22	4%
O=C(NC1CCCC1)C(c1ccc(F)cc1)N(Cc1ccccc1Cl)C(=O)CCl (configuration not stated)	-1	0	50*	-28	-1%
CCc1ccc(-c2nc(CN3CCC(C(=O)N4CCN(c5ccccc5)CC4)CC3)c(C)o2)cc1	-29	-1	.	6	34%
Nc1ccc(S(=O)(=O)Nc2nc3ccccc3o2)cc1	.	52	-1.0	.	.
CC1(C)CN=C(Nc2ccc(F)c(Cl)c2)S1	.	0	-0.1	.	-7%
Cn1c(CSCc2ccccc2)n[nH]c1=S	5	7	1.8	-29	-6%

Next section
SMILES	Arbovirus inh	Mtb bLac sens	RecA splice inh	YopH PTP inh	Mtb H37Rv	others
CN(C)CCCC(C)(O)C(Cc1ccccc1)c1ccccc1 (configuration not stated)	-4	0	0.7	-23	-5%
CS(=O)CCC(NS(=O)(=O)c1ccccc1)C(=O)O (configuration not stated)	10	2	-1.8	-15	-2%
O=C(NCc1ccc2c(c1)OCO2)C(=O)NCC1OCCCN1S(=O)(=O)c1cc(F)ccc1F (configuration not stated)	.	1	-0.9	.	.
Cc1ccc(CN2CCSc3ccc(C(=O)NCC4CCCO4)cc32)cc1 (configuration not stated)	.	3	-3.8	.	.
COc1ccccc1N(CC(=O)NCC1CCCO1)C(=O)CNS(=O)(=O)c1ccccc1 (configuration not stated)	.	-5	-0.7	.	-3%
O=C(Nc1ccccc1)c1ccc(Br)o1	-8	0	0.9	-19	-12%
N#CC1=C(C2CC2)CC(c2ccccc2)C(C#N)=C1N (configuration not stated)	-2	-8	-3.6	-28	2%
COc1ccc(CNc2nc3nc(C)cc(C)n3n2)cc1	2	-8	-1.8	-2	-8%
O=C1c2cccnc2C(Nc2ccc(Br)cc2Br)N1Cc1cccs1 (configuration not stated)	-6	-6	-1.6	.	7%
Cc1ccc(/C=C/C(=O)c2c(C)cc(C)[nH]c2=O)cc1	-5	51	-1.2	3	5%
Cc1ccc(S(=O)(=O)NCc2c(-c3ccccc3)c3cc(Cl)ccc3[nH]c2=O)cc1	-4	16	-0.4	-57	11%
Cc1ccc(C2=NC(=O)/C(=C/c3cc(O)c(O)c(Br)c3)S2)cc1	-21	.	.	.	-2%
CC(C)CCN(C(=O)Nc1ccc(Cl)cc1)C1CCN(C(C)C)CC1	-22	-4	3.0	.	-4%
O=C(O)C(Cc1ccc(Cl)cc1)Sc1nc2ccccc2[nH]1 (configuration not stated)	.	-4	-2.0	.	.
COc1ccc(O)c(CN2CCC(n3nccc3NC(=O)C3CCCC3)CC2)c1	.	-13	-5.8	.	.
CCCCC12CN3CC(C)(CN(C1)C3c1ccc([N+](=O)[O-])o1)C2=O (configuration not stated)	.	.	2.8	.	7%
CCCCCN(C(=O)CCC(=O)OCCOc1ccccc1Cl)c1c(N)n(CCCC)c(=O)[nH]c1=O	.	-10	-2.6	.	.
CCCCCNC(=O)c1ccc2c(c1)ncn2-c1ccc(OC)cc1	.	4	-0.2	.	.
Cc1ccc(NC(=S)N2CCN(S(C)(=O)=O)CC2)cc1C	.	-2	-0.1	.	.
O=S(=O)(Nc1nc2ccccc2nc1-[n+]1cccc(N=C([O-])c2ccccc2Cl)c1)c1ccccc1	.	3	-0.3	.	3%
COc1ccc(-c2csc(Nc3cccc(C)n3)n2)cc1	.	75	1.2	.	.
CCc1nonc1NC(=O)COc1cc(C)c(Cl)c(C)c1	.	0	3.2	.	.
COc1cccc(C2=NOC(C(=O)N3CCN(Cc4ccccc4)CC3)C2)c1OC (configuration not stated)	-3	-5	0.7	-40	.
CCCCN(C(=O)CSCC(=O)Nc1ccc(C)cc1)c1c(N)n(Cc2ccccc2)c(=O)[nH]c1=O	.	-7	-0.8	.	.
CCCOCCOC(=O)c1[nH]c2c(c1C)C(=O)CC(c1cc(OC)ccc1OC)C2 (configuration not stated)	-4	-3	-1.5	-21	-7%	Arbovirus inh repeat=-6

Next section
SMILES	Arbovirus inh	Mtb bLac sens	RecA splice inh	YopH PTP inh	Mtb H37Rv	others
Cc1ccc(S(=O)(=O)N2CCN(C(C)C(=O)N3CCCc4ccccc43)CC2)cc1 (configuration not stated)	0	-7	-2.5	1	-1%
COc1ccccc1CNC(=O)COn1nnc2ccc(S(=O)(=O)N3CCOCC3)cc21	.	0	-3.2	.	.
CCCc1cc(=O)n2nc(N3CCC(C(=O)N4CCN(c5ccc(OC)cc5)CC4)CC3)sc2n1	.	-3	-0.5	.	.
COc1ccc(C(=O)N/N=C(\C)c2ccc(NC(=O)Cc3ccccc3)cc2)c(OC)c1	.	-4	-0.7	.	.
Cn1c(-c2ccc(F)cc2)cnc1NCc1cccc(F)c1	-18	-5	-2.9	-9	-2%
O=C(Nc1ccc2c(c1)OCO2)N1CCN(C(=O)C2CCCO2)CC1 (configuration not stated)	-1	-3	-0.8	-15	-6%
Cc1cccc(N2CCN(C(=O)Cc3cn(C)c4ccccc34)CC2)c1C	-10	33	11	-29	-2%
O=[N+]([O-])c1ccc(N2CCN(c3ccc(O)cc3)CC2)c(Cl)c1	-21	5	-3.5	-23	9%
O=C(OCc1nc2ccsc2c(=O)[nH]1)c1ccc(Cl)s1	.	6	0.3	.	.
COc1cc(C(=O)N2CCC(O)(c3ccccc3)CC2)cc(OC)c1OC	7	6	-2.5	-24	-1%
O=C(c1ccco1)N1CCN(c2ccc(F)cc2)CC1	22	1	-2.9	.	4%
CN1CC(=O)N=C1N	.	-2&5	0.9&-1.6	.	.
COc1ccccc1-c1nnc2sc(-c3cnccn3)nn12	-2	6	3.8	-5	-5%
COc1ccccc1NC(=O)c1cc2c(CO)cnc(C)c2oc1=Nc1ccccc1	.	12	10	.	.
CC(C)OC(=O)Nc1ccc2c(c1)N(C(=O)CCN1CCOCC1)c1ccccc1CC2	-3	3	0.2	.	-1%
CCOc1ccc(-c2nnc(SCC(=O)Nc3cc(C)on3)o2)cc1	-7	99	2.6	.	1.6µM*
Cc1ccc(-c2noc(CCCC(=O)N3CCOCC3)n2)cc1	2	5	-1.3	-33	-4%
O=c1c2c(n3cnnc3n1-c1ccccc1)-c1ccccc1CC21CCCCC1	5	-1	1.1	-6	1%
Cc1ccc(N2CCN(C(=O)c3ccccc3)CC2)c(C)c1	7	-5	6.4	-2	-7%
CCOc1ccc(C(=S)N2CCOCC2)cc1OCC	2	1	-2.3	-10	-6%
CC(Oc1cc(-c2ccccc2)cc2ccccc12)C(=O)N1CCOCC1 (configuration not stated)	-1	93	-0.5	-11	-4%
N#C/C(=C/c1ccccc1[N+](=O)[O-])c1nc(C2CC2)cs1	-1	4	20	-27	12%
CCOC(=O)C1CCN(C(=O)COc2ccc(Br)cc2)CC1	10	5	.	10	-16%
CCCCN(CC)CCNC(=O)c1cc2c(-c3ccc(Cl)cc3)nn(C)c2s1	.	99	2.6	.	.
CCC(=O)Nc1nc2nc(C)cc(=O)n2[nH]1	2	4	-6.4	-43	.

A draw from above in order of molar mass, highest first.
SMILES	Arbovirus inh	Mtb bLac sens	RecA splice inh	YopH PTP inh	Mtb H37Rv	others
CCCc1cc(=O)n2nc(N3CCC(C(=O)N4CCN(c5ccc(OC)cc5)CC4)CC3)sc2n1	.	-3	-0.5	.	.
COc1ccccc1CNC(=O)COn1nnc2ccc(S(=O)(=O)N3CCOCC3)cc21	.	0	-3.2	.	.
CC(C)OC(=O)Nc1ccc2c(c1)N(C(=O)CCN1CCOCC1)c1ccccc1CC2	-3	3	0.2	.	-1%
COc1ccc(C(=O)N/N=C(\C)c2ccc(NC(=O)Cc3ccccc3)cc2)c(OC)c1	.	-4	-0.7	.	.
CCOc1ccc(-c2nnc(SCC(=O)Nc3cc(C)on3)o2)cc1	-7	99	2.6	.	1.6µM*

The listing continues:
SMILES	Arbovirus inh	Mtb bLac sens	RecA splice inh	YopH PTP inh	Mtb H37Rv	others
CCN(CC)C(=O)c1c(NC(=O)c2ccccc2)sc(C)c1C	-3	-2	0.1	-8	8%
COc1ccc(NC(=O)/C(C#N)=C\c2cc(C)n(-c3ccc4c(c3)OCO4)c2C)cc1	-20	3	-2.9	-2	1%
COc1cc(C(=O)N/N=C\c2ccccc2)c([N+](=O)[O-])c(OC)c1OC	1	1	-1.3	3	-13%
O=C(NCc1ccco1)C1CCCN(S(=O)(=O)c2ccccc2)C1 (configuration not stated)	-1	-5	.	-23	-10%
O=C(CSCc1ccccc1)N1CCN(c2cccc(C(F)(F)F)c2)CC1	-29	-5	8.6	-30	-1%
O=C(CSc1ccc(-c2ccco2)nn1)NCc1ccc2c(c1)OCO2	3	2	-8.9	.	-4%
COc1ccc(C(=O)NCc2nnc(SCC(=O)c3ccccc3)n2C)cc1	-2	-5	1.9	.	-3%
COc1ccc(NC(=O)COC(=O)[C@@H]2CCCN2S(=O)(=O)c2ccccc2F)c(OC)c1	12	-4	1.2	.	6%
CC1Oc2ccccc2N(Cc2ccc(F)cc2)C1=O (configuration not stated)	.	-1	-2.7	.	.
Cc1ccc(S(=O)(=O)N2CCC(=O)N(C(CO)C(C)C)CC2)cc1 (configuration not stated)	3	-8	-2.6	6	-18%
O=c1c(-c2ccc3c(c2)OCCO3)coc2cc(O)cc(O)c12	-18	5	4.0	-36	4%
CC(C)(C)c1ccc(Oc2ccc(NC(=O)c3cccs3)cn2)cc1	.	1	-2.4	.	63%
Cc1ccc2nc(SCc3cn4c(C)cc(C)nc4n3)[nH]c2c1	-5	1	1.6	-8	-13%
COc1ccc(NC(=O)C2CCN(c3cc(-c4ccccc4)nc4ncnn34)CC2)cc1OC	-2	-2	.	-50	10%
Cc1ccccc1-n1ncc2c(SCC(=O)N3c4ccccc4CC3C)ncnc21 (configuration not stated)	6	91	5.8	-26	10%
CC1=C(N2CCN(c3ncccn3)CC2)CCC1=O	.	-9	-2.3	.	8%
Cc1ccc(CN2CCN(Cc3cccn3-c3ccccn3)CC2CCO)cc1 (configuration not stated)	3	-3	-2.1	.	5%
CC(C)c1nnc(NC(=O)CCC(=O)N2CCN(c3ccccc3F)CC2)s1	.	2	-0.4	.	.
Cc1ccc(N2CCN(CCc3ccccc3)CC2)cc1	14	?	-1.8	-19	8%
O=C(O)CSC1=NC(=Nc2ccc(Cl)cc2)C2(CCCCC2)N1c1cccc(C(=O)O)c1	-4	-1	-2.9	-25	-2%

Only part of the results is shown; the hit share may differ from the screen's.
